# Compound activity: PubChem, National Center for Advancing Translational Sciences (NCATS)
# StopGo FLuc: lowers the firefly signal of an FMDV 2A StopGo reporter | 0.23% of 120,000 active | HEK cells with a luciferase reporter of 2A StopGo recoding | Potency, µM (top dose mostly 57.5 µM), for the others: at the top dose signal change, negative = less light; active = well fitted falling curve with a large enough effect; inconclusive = small, poorly fitted or top-dose-only effect; inactive = no such curve, though single readings can be large or run the other way; further: nearly all actives have a fitted effect of over 60% in size; overnight with compound
# StopGo RLuc: FMDV 2A StopGo reporter, Renilla signal; HEK cells with a luciferase reporter of 2A StopGo recoding; Potency, µM (titrated, usually from 57.5 µM), for inactives: at the top dose signal change, negative = less light; 0.32% of 120,000 active; AID 1745857; active means well fitted falling curve with a large enough effect; inconclusive means small, poorly fitted or top-dose-only effect; inactive means no such curve, though single readings can be large or run the other way; further: nearly all actives have a fitted effect of over 55% in size; overnight with compound
# Active calls of the source: *; ? = inconclusive; [ ] = remark or other dose. On the % scale 0 is the no-effect control and ±100 the full control effect; potency means the concentration at half of the fitted maximal effect. A portion of the library (hit frequency here may not be typical).
SMILES,StopGo FLuc,StopGo RLuc
Cc1cc(C)c(Cn2c(=O)n(CCC(=O)NCc3ccc4c(c3)OCO4)c(=O)c3ccccc32)c(C)c1,-20%,-16%
O=C(Cn1ccc2c(Cl)cccc21)Nc1ccc2c(c1)OCCO2,55%[activator],-1%
Cc1ccc(NC(=O)c2cc3ccccn3n2)cc1F,36%[activator],?
Cc1ccsc1CN(C(=O)c1ccc(OCC(C)C)cc1)C1CCS(=O)(=O)C1 (centres undefined),44%[activator],32%[activator]
CCc1nnc(NC(=O)c2cc(-c3ccco3)nc3ccccc23)s1,-27%,-22%
Cc1cccc2c1ccn2CCC(=O)Nc1nnc(C2CC2)s1,13%,-1%
CCCn1c(C)cc(C(=O)CSc2nc3nc(C)cc(C)n3n2)c1C,1%,-20%
CC(C)CCNC(=S)Nc1ccc(SC(F)F)cc1,?,-54%
Cc1cccc(N/C=C/C(=O)C(F)(F)F)c1,7%,14%
Cc1cc(C)cc(OCCOC(=O)c2cc(Cl)ccc2O)c1,0%,28%
CC(=O)c1cccc(NC(=O)C(C)Sc2cc(Cl)ccc2Cl)c1 (centres undefined),-5%,38%[activator]
N#Cc1ccccc1NC(=O)CSc1nnc(N)s1,12%,-5%
COc1ccc(-n2ccnc(NCc3cccs3)c2=O)cc1OC,33%[activator],1%
Cc1ccc(NC(=O)CCc2ncc(-c3ccccc3F)o2)cc1,17%,-8%
CC(C)c1nnc(SCC(=O)NC2CCCCCC2)o1,-2%,-14%
CC(C)Cc1nn2c(=O)cc(COC(=O)c3ccccc3NC(=O)c3ccccc3)nc2s1,38%[activator],24%
Cc1ccc(CNC(=O)c2ccc3c(c2)NC(=O)C(CS(=O)(=O)Cc2cccc(F)c2)N3)cc1 (centres undefined),3%,-14%
Cc1ccc(NC(=O)C(Cc2ccccc2)NS(=O)(=O)c2ccc3c(c2)c(=O)n(C)c(=O)n3C)cc1 (centres undefined),-11%,33%[activator]
Cc1nc2ccn(Cc3cccnc3)c(=O)c2cc1C(=O)NCc1ccccc1,0%,0%
Cc1c(C(=O)C(=O)Nc2ccc(C(C)C)cc2)c2ccccc2n1C,12%,5%
Cc1ccccc1OCc1cc(=O)n2c(-c3ccccc3)csc2n1,36%[activator],-2%
CC(C)(C)C(=O)CSc1nc2ccsc2c(=O)n1Cc1ccccc1Cl,-5%,8%
O=C(/C=C/Nc1cccc(C(F)(F)F)c1)c1ccc(Br)cc1,0%,9%
COc1ccc(CCNC(=O)CN2C(=O)COc3ccc(C)cc32)cc1OC,12%,10%
CCOc1ccc2c(c1)cc(C(=O)NCc1ccco1)n2C,95%[activator],22%

# 2 records picked at random from the list so far:
SMILES,StopGo FLuc,StopGo RLuc
O=C(Cn1ccc2c(Cl)cccc21)Nc1ccc2c(c1)OCCO2,55%[activator],-1%
CC(C)(C)C(=O)CSc1nc2ccsc2c(=O)n1Cc1ccccc1Cl,-5%,8%

# Remaining list, next part.
SMILES,StopGo FLuc,StopGo RLuc
OCc1cnc(SCc2cccc(F)c2)n1Cc1ccc(F)cc1,9%,3%
O=C(Nc1c(F)c(F)c(F)c(F)c1F)C12CC3CC(CC(C3)C1)C2,6%,-8%[1.06 µM]
Cc1ccc(NC(=O)C(CC(C)C)N2Cc3ccccc3C2=O)cc1F (centres undefined),-12%,?
COc1ccc(CCNC(=O)c2ccc3c(c2)nc2n3CCC(C)C2)cc1OC (centres undefined),-9%,-2%
CCCN1CCN(CC(=O)Nc2scc(-c3ccc(Cl)cc3)c2C(=O)OC)CC1,39%[activator],20%
CCOC(=O)c1c(SCC(=O)Nc2nc3ccccc3s2)nc(=O)[nH]c1C,-2%,32%[activator]
O=C(NCc1cccs1)c1cnccn1,3%,4%
COc1ccc(NC(=O)CCNS(=O)(=O)c2cccc3nonc23)c(OC)c1,-20%,-5%
Cc1ccc(NS(=O)(=O)c2ccc(-c3cnc(C)o3)cc2)c(Cl)c1,15%,53%[activator]
Cc1nn(Cc2cccc(F)c2)c(C)c1NC(=O)Nc1ccc2c(c1)OCO2,74%[activator],5%
COc1ccc2c(C)c(CC(=O)NC3CCCCCC3)c(=O)oc2c1OC,0%,-9%
Cn1nc(CC(=O)Nc2ccc(S(=O)(=O)N3CCCCCC3)cc2)c2ccccc2c1=O,?,-4%
CC(Cc1cccs1)N(Cc1ccc(Cl)cc1)C(=O)c1ccc(C(F)(F)F)cc1 (centres undefined),0%,0%
O=C(NCCNS(=O)(=O)c1cccc2nonc12)c1cccc2[nH]ccc12,-2%,6%
c1csc(CNC23CC4CC(CC(C4)C2)C3)c1,?,-6%[1.06 µM]
Cc1cccc(C)c1-n1ncc(C(=O)NC2CCCC2)c1C1CCN(C(=O)OC(C)(C)C)CC1,-19%,-6%
COC(=O)c1ccc(C(=O)OC)c(NC(=O)COc2ccc(C)cc2)c1,5%,-4%
CCc1cccc2c(C(=O)O)cc(-c3ccnn3CC)nc12,-10%,-16%
CCn1c(C(=O)Nc2c(C)cccc2C)cc2sc(Cl)cc21,3%,-18%
c1ccc(-c2cn(-c3ccccc3)c3ncnc(N4CCN(c5ccccc5)CC4)c23)cc1,-2%,6%
O=C(Nc1ccc2oc(-c3cccc(I)c3)nc2c1)c1cccc([N+](=O)[O-])c1,79%[activator],3%
Cc1ccccc1CNC(=O)c1nccnc1N,20%,1%
CC(=O)Nc1cc(C(=O)NCc2ccc(F)cc2)ccc1Sc1ccc(C)cc1,-6%,16%
O=C(NCc1ccc2c(c1)OCCO2)N1CCN(S(=O)(=O)c2cc(F)ccc2F)CC1,-3%,5%
Cc1nc(-c2ccc(S(=O)(=O)Nc3ccc(F)cc3F)cc2)co1,7%,53%[activator]
SMILES,StopGo FLuc,StopGo RLuc
N#Cc1ccc(OCC(O)CNCCC2=CCCCC2)cc1 (centres undefined),5%,-19%
Cc1ccccc1OCC(=O)Nc1ccc2nc(SCc3ccccc3)sc2c1,-1%,-2%
CC(C)(Oc1ccc(C2CC2(Cl)Cl)cc1)C(=O)O (centres undefined),-5%[11.5 µM],0%
CCN(CC)CCCNc1sc(S(=O)(=O)c2ccccc2)nc1S(=O)(=O)c1ccc(Cl)cc1,2%,59%[activator]
O=C(Nc1ccc2oc(-c3cccnc3)nc2c1)c1ccc(-c2cccc(Cl)c2)o1,?,?
O=C(COCC(=O)N1CCN(c2ccccc2)CC1)NCc1ccc2c(c1)OCO2,-8%,-7%
CCCN1CCC2(CC1)Oc1c(OC)cccc1C1CC(c3ccc4c(c3)OCO4)=NN12 (centres undefined),220%[activator],95%[activator]
CC1=C(C(=O)Nc2ccc(Cl)cc2)C(c2ccccc2C)n2ncc(C(=O)Nc3ccc(C)cc3)c2N1 (centres undefined),-23%,-25%
COC(=O)c1ccc(Cl)cc1NC(=O)N(Cc1ccc(C)o1)C1CCN(C(C)=O)CC1,-13%,27%
COc1ccc(CNC(=O)CN2C(=O)CSc3ccc(S(=O)(=O)N4CCOCC4)cc32)c(OC)c1,-10%,1%
CC1CCCN(CCCNC(=O)c2ccc3c(c2)N(Cc2ccc(Cl)cc2)C(=O)c2ccccc2S3(=O)=O)C1 (centres undefined),-11%,38%[activator]
Cc1c(CC(=O)Nc2ccc3c(c2)OCO3)c(=O)oc2c(C)c(O)ccc12,27%,8%
CCn1nc(C)c2c(-c3ccccc3)cc(=O)n(C(C)C(=O)Nc3cccc(F)c3)c21 (centres undefined),1%,44%[activator]
COc1ccccc1Oc1c(C)oc2cc(OC(=O)N3CCOCC3)ccc2c1=O,-3%,-7%
Cc1cc(C)cc(NC(=O)C2CCN(C(=O)c3cnn(-c4ccccc4)c3-n3cccc3)CC2)c1,-27%,-24%
Cc1ccc(C)c(NC(=O)CSc2c(C)cnc3c2c(=O)n(C)c(=O)n3C)c1,-6%,7%
CC(C)NC(=O)CCC(=O)c1ccc2c(c1)OCCO2,79%[activator],18%
CS(=O)(=O)Oc1ccc2c(=O)c(Oc3ccccc3Br)c(C(F)(F)F)oc2c1,?,?
CN(CC1COc2ccccc2O1)C(=O)c1nn(Cc2ccccc2)c(=O)c2ccccc12 (centres undefined),-7%,39%[activator]
CC(C)c1ccc(NC(=O)CN2CCCC2)cc1,18%,1%
Cc1cccc(N2CCN(C3=C(c4ccccc4)C(=O)c4ccccc43)CC2)c1C,-4%,4%
Cc1oc2cc(OC(=O)N(C)C)ccc2c(=O)c1-c1ccc(Br)cc1,5%,?
CCCCNc1oc(/C=C/c2cccs2)nc1C#N,177%[activator],21%
O=C(CN1CCCC1c1ccc2c(c1)OCCCO2)Nc1ccccc1Cl (centres undefined),2%,8%
COc1ccc(/C=C2\CCc3ccccc3C2=O)cc1Br,203%[activator],25%

# Single values from above:
# Cc1oc2cc(OC(=O)N(C)C)ccc2c(=O)c1-c1ccc(Br)cc1 in StopGo FLuc is listed with 5%
# COc1ccc(/C=C2\CCc3ccccc3C2=O)cc1Br in StopGo FLuc is listed with 203%[activator]
# COc1ccc(CNC(=O)CN2C(=O)CSc3ccc(S(=O)(=O)N4CCOCC4)cc32)c(OC)c1 in StopGo RLuc is listed with 1%

# Reformatted with bars between the fields: part of the list above
compound | StopGo FLuc | StopGo RLuc
COc1ccc(CNC(=O)CN2C(=O)CSc3ccc(S(=O)(=O)N4CCOCC4)cc32)c(OC)c1 | -10% | 1%
CC1CCCN(CCCNC(=O)c2ccc3c(c2)N(Cc2ccc(Cl)cc2)C(=O)c2ccccc2S3(=O)=O)C1 (centres undefined) | -11% | 38%[activator]
Cc1c(CC(=O)Nc2ccc3c(c2)OCO3)c(=O)oc2c(C)c(O)ccc12 | 27% | 8%

# Molecules above containing a cyano group, in the order listed:
SMILES,StopGo FLuc,StopGo RLuc
N#Cc1ccccc1NC(=O)CSc1nnc(N)s1,12%,-5%
N#Cc1ccc(OCC(O)CNCCC2=CCCCC2)cc1 (centres undefined),5%,-19%
CCCCNc1oc(/C=C/c2cccs2)nc1C#N,177%[activator],21%

# The list continues.
SMILES,StopGo FLuc,StopGo RLuc
COc1ccc(C2CC(=O)c3cnc4c(-c5ccc(F)cc5)c(C)nn4c3C2)cc1OC (centres undefined),-6%,-3%
COc1ccc(Br)cc1CNC(=O)CN1C(=O)CCCc2ccccc21,6%,38%[activator]
CCC(CC)c1nn2c(=O)cc(COc3ccc(NC(=O)c4ccccc4C)cc3)nc2s1,3%,2%
Cc1ccc(C)c(CN2C(=O)c3ccccc3S(=O)(=O)c3ccc(C(=O)Nc4cc(F)ccc4F)cc32)c1,2%,40%[activator]
Cc1nc(SC(C)c2cccc(F)c2)sc1CC(N)=O (centres undefined),157%[activator],-6%
Brc1cccc(-c2noc(CCc3nc4ccccc4[nH]3)n2)c1,0%,5%
COc1ccc(-n2nc(C(=O)Nc3cccc(C)n3)c3c4ccccc4n(C)c3c2=O)cc1,-15%,-17%
CS(=O)(=O)c1cccc(C(=O)N2CCN(C(=O)c3ccccc3)CC2)c1,1%,-8%
CCCCCn1nc(C(=O)Nc2nc(-c3cc(OC)ccc3OC)cs2)c2ccccc2c1=O,3%,-3%
CCOC(=O)C(O)(c1ccc(N(C)C(=O)Nc2ccc(Cl)cc2)cc1)C(F)(F)F (centres undefined),?,?
CCn1nc(C)cc1-c1nn2c(-c3ccc(F)cc3)nnc2s1,25%,-5%
COc1ccc(S(=O)(=O)[C@H]2CS(=O)(=O)C[C@@H]2NCc2ccccn2)cc1,-3%,-11%
COC(=O)[C@H]1[C@H]2C[C@@H]3c4[nH]c5cc(OC)ccc5c4CCN3C[C@H]2C[C@@H](OC(=O)c2cc(OC)c(OC)c(OC)c2)[C@@H]1OC,-12%[11.5 µM],7%
Cc1ccc(CCNC(=O)c2ccc3c(c2)N(Cc2cccc(Cl)c2)C(=O)c2ccccc2S3(=O)=O)cc1,-17%,-3%
COCCOC(=O)/C(C#N)=C\c1ccc(Cl)c(Cl)c1,14%,11%
CC(C)NC(=O)CNC(=O)c1n[nH]c(=O)c2ccccc12,10%,5%
CS(=O)(=O)Cc1ccc(CNCc2cccc3ccccc23)cc1,-4%,1%
CCCc1nn(C)c2c(=O)[nH]c(-c3cc(S(=O)(=O)N4CCN(C)CC4)ccc3OCC)nc12,-1%,20%
CNC(=O)c1ccc2nc(CCc3ccccc3)oc2c1,101%[activator],-10%
CCOC(=O)C1=C(CNCc2ccc(C)cc2)NC(=O)NC1c1ccc(Cl)cc1 (centres undefined),0%,-11%
Cn1cnnc1Sc1ccc(/C=N/Nc2ccc(S(N)(=O)=O)cc2[N+](=O)[O-])cc1[N+](=O)[O-],39%,15%
O=C(c1cn(-c2ccc(Cl)cc2)nn1)N1CCc2ccccc2C1,19%,-13%
COC(=O)c1cc(NC(=O)CC23CC4CC(CC(C4)C2)C3)cc(C(=O)OC)c1,2%,10%
CC(C)(O)C#Cc1ccc(C(=O)NC(Cc2c[nH]c3ccccc23)C(=O)O)cc1 (centres undefined),9%,-13%
COc1cccc(C(=O)Nc2ccccc2OCc2cc(=O)n3ccccc3n2)c1,-14%,-1%
CC(C)(C)c1ccc(C2CC(=O)c3cnc(N)nc3C2)cc1 (centres undefined),94%[activator],13%
COc1ccc(CCNC(=O)Cn2c(=O)nc(-c3ccccc3)c3ccccc32)cc1OC,0%,-9%
Cc1ccc(S(=O)(=O)N(C)CC(=O)Nc2ccc(Nc3ccccc3)cc2)cc1,11%,42%[activator]
Cc1cc(C)c(NC(=O)C(=O)NCCc2csc(-c3ccc(F)cc3)n2)c(C)c1,?,?
